Six1-Eya2 inh = inhibitors of human Six1/Eya2 interaction. Q15475+O00167. 0.56% of 360,000 active. activity change, % (no concentration beside the values). AlphaScreen GST-Six1/His-Eya2 binding, biochemical; active compounds read low; control for the full effect not named in the record; in the data active = activity change below about -65%; inconclusive = about -30% to -65%; inactive = above about -30%; note: % is set by controls: 0 for no effect and ±100 for the full control effect
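Compounds are tested against tagged Six1 and Eya2 proteins bridged by glutathione donor and nickel acceptor beads; after a one-hour incubation at 37 °C without light, AlphaScreen emission is recorded.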
D2 ag = human D2 receptor agonism in beta-arrestin assay. DiscoveRx PathHunter D2 beta-arrestin, luminescence, 90 min; 100% = 57 uM dopamine signal. AID 624465. activation, % (test concentration not listed). 0.084% of 360,000 active; in the data active = activation above about 40%; inconclusive = about 15% to 40%; inactive = below about 15%; note: compound concentration not given in the record; the text of the record calls up to 30% inactive
Target sequence (P14416 whole entry, looked up): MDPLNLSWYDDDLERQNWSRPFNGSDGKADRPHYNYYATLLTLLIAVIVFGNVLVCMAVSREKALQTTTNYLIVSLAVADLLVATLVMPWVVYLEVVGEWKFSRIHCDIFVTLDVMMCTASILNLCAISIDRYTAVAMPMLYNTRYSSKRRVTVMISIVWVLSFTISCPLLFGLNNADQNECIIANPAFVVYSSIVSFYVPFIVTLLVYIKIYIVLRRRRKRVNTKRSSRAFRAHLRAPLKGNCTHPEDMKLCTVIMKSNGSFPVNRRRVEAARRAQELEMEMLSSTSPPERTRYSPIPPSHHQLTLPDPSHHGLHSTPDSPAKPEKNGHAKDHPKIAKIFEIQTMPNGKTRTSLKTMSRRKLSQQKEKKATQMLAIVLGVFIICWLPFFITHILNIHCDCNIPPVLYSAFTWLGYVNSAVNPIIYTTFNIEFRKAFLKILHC
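DiscoveRx PathHunter D2 beta-arrestin cells (2,100/well) attached overnight, then compound-stimulated 90 min at 37 C in HBSS/10 mM HEPES/0.1% Tween-20 buffer; beta-galactosidase complementation read by luminescence after 1 h at ambient temperature. Dopamine 57 uM final (EC100) as control.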
PINK1 expr mod = changes PINK1 expression; 0.2% of 410,000 active; PINK1 immunofluorescence, high-content cytometry, 24 h; Potency, µM (top dose mostly 76.6 µM), for inactives: top-dose activation (PINK1 increase), hits mostly activators; active = well fitted activation curve with a large enough effect; inconclusive = small, poorly fitted or top-dose-only effect; inactive = flat fitted curve, though single readings scatter; cell line not stated here;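 note: potency is the fitted concentration of half-maximal effect; % of control where 0% means no effect; nearly all actives have a fitted effect of over 65% in size; a mitochondrial uncoupler was the plate control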
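PINK1 protein, normally rapidly degraded, was detected by immunofluorescence after 24 hour compound treatment of a stable cell line. Titration data (5 concentrations) came from laser-scanning cytometry, with CCCP-treated wells as controls.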
TRPML1 agonist = agonists of human TRPML1 channel; 0.12% of 410,000 active; activation, % (concentration not given with the values); AID 624414; Q9GZU1; TRPML1-expressing cells, Ca2+ dye fluorescence, FDSS; host cell line not named in the record; reference of the full effect not given here; in the data active = activation above about 50%; inconclusive = about 30% to 50%; inactive = below about 30%; note: 0% is about no effect; the text of the record puts the active cut at 80%
Target sequence (Q9GZU1 whole entry, looked up): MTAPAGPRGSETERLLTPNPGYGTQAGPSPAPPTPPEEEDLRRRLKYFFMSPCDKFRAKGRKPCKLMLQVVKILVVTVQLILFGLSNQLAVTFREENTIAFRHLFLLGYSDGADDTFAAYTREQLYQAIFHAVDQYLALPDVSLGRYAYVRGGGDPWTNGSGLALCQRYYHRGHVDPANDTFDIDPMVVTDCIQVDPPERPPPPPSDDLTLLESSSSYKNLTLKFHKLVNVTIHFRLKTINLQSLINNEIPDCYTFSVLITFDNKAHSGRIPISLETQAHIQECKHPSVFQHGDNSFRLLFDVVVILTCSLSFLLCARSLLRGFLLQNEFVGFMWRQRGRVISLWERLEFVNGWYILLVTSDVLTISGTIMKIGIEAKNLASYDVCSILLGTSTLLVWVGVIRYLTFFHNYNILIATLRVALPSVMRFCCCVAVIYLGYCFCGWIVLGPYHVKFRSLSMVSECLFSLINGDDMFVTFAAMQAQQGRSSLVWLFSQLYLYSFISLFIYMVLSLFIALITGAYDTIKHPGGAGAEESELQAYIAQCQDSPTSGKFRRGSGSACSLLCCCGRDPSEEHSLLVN
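TRPML1-DL cells, Tet-induced overnight (~16 h, 37 degrees C), loaded 45-90 min at room temperature with Ca8 no-wash calcium dye plus quencher. FDSS fluorescence: 10 s baseline, compound pin-transfer, 110 s agonist read, then EC80 54-4 (4uM final) and 110 s antagonist read.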
CtBP-E1A inh = blocks the CtBP interaction with E1A; AlphaScreen GST-E1A/His-CtBP binding, 1536-well; active compounds read low; control for the full effect not named in the record; activity change, % (test concentration not listed); 0.49% of 340,000 active; AID 651724; in the data active means activity change below about -65%; inconclusive means about -30% to -65%; inactive means above about -30%; note: % is set by controls: 0 for no effect and ±100 for the full control effect
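AlphaScreen with 125 nM GST-E1A and 125 nM His-CtBP (5X stocks) in Tris pH 8.0, 300 mM NaCl, BSA, Tween 20, TCEP. Compounds preincubated 2 h at 37 deg C, then glutathione donor/nickel acceptor beads added for 1 h at 37 deg C in dark.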
TRPML1 inh = blocks the human TRPML1 channel. Q9GZU1. 0.02% of 390,000 active. AID 624415. TRPML1-inducible cells, Ca2+ dye fluorescence, FDSS; active compounds read low; inhibition of EC80 agonist-evoked calcium signal. activity change, negative = inhibition, % (concentration not given with the values); in the data active means activity change below about -50%; inconclusive means about -30% to -50%; inactive means above about -30%;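 note: stimulus is agonist 54-4 at its EC80 concentration; % is set by controls: 0 for no effect and ±100 for the full control effect; the text of the record puts the active cut at -80%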
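TRPML1-DL cells, Tet-induced overnight (~16 h, 37 °C) at 1,500 cells/well, were loaded with Ca8 no-wash dye plus quencher for 45-90 min at room temperature. Compounds were pinned during FDSS kinetic reading; agonist 54-4 at EC80 (4 uM final) then added.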
An asterisk follows results filed as active; ? = inconclusive; . = no result given; [ ] = another dose, or the depositor's remark.

SMILES	Six1-Eya2 inh	D2 ag	PINK1 expr mod	TRPML1 agonist	CtBP-E1A inh	TRPML1 inh
N#Cc1ccc2ccn(CC(=O)N3CCCc4ccccc43)c2c1	9.9	0.9	2.9%[38.3 µM]	-0.5	17.1	18.8
Cc1c(O)nc(SCC(=O)Nc2ccc3c4c(cccc24)CC3)n(-c2ccccc2)c1=O	?	2.0	0.9%	0.9	-12.3	-10.1
COc1ccc(C2C(C(C)=O)=C(O)C(=O)N2c2ccc(Br)cn2)cc1 (centres undefined)	1.1	0.1	1.5%	-0.6	6.2	17.4
COc1ccccc1C(=O)COC(=O)C1(C)CC1(Cl)Cl (centres undefined)	19.8	0.1	3.9%	-0.3	26.8	5.8
CCCNC(=O)c1cc(C2CCCCN2C(=O)CCc2ccccc2)on1 (centres undefined)	-1.8	?	-1.0%	-1.0	8.5	.
O=C(COC(=O)c1cc(=O)[nH]c2ccccc12)Nc1nc(-c2ccc(F)cc2)cs1	-6.5	8.0	1.1%	.	0.0	.
OCCCc1cn(-c2ccccc2)c2ccccc12	-2.6	-2.8	6.4%	1.2	-11.7	-7.2
Cc1ccc(S(=O)(=O)N(CCc2ccccc2)CC(=O)Nc2ccccc2C)cc1	.	.	0.8%	2.5	.	53.1
COc1ccc(-n2nc(C)c3c(C(F)(F)F)cc(-c4cccnc4)nc32)cc1	.	.	0.7%	-0.7	.	17.4
COCCN(C(=O)c1snc(C(N)=O)c1N)C(C(=O)NC1CCCCC1)c1cc(OC)c(OC)c(OC)c1 (centres undefined)	1.9	-5.6	3.0%	0.3	-12.2	2.3
CCOc1ccc(CCNC(=O)Cc2ccc(NC3=NC4CS(=O)(=O)CC4S3)cc2)cc1OCC (centres undefined)	3.2	0.6	-1.3%	0.2	1.4	-2.5
O=C(NCn1cnccc1=O)c1ccccc1	3.3	-2.1	-1.8%[38.3 µM]	0.7	1.3	-7.7
Cn1c(=O)c2c(nc(N3CCNCC3)n2Cc2ccccc2Cl)n(C)c1=O	0.6	-3.9	1.2%	-0.2	2.0	-12.3
COCc1ccc(CN2CCC(Oc3ccc(C(=O)NCc4ccccn4)cc3)CC2)o1	-1.9	-2.4	2.4%	-0.2	3.8	-0.7
Cn1c(=O)c2ncn(CC(=O)Nc3ccc(N4CCOCC4)cc3)c2n(C)c1=O	-0.8	-2.0	9.7%[38.3 µM]	2.6	-0.5	6.3
C[C@@]12C(=O)N(Cc3ccco3)CC(=O)N1[C@H]1c3cc(Cl)ccc3OC[C@@H]1[C@@H]2c1ccccc1	-14.5	-2.5	1.8%	0.3	-2.5	34.3
CCOC(=O)C1CCN(C(=O)Cn2cnc3sc(C)c(S(=O)(=O)N4CCOCC4)c3c2=O)CC1	-6.2	-4.9	0.2%	-0.4	2.8	-0.5
Clc1ccc(N2CCN(/N=C/c3ccncc3)CC2)cc1	-8.1	1.0	3.9%	2.0	5.7	12.1
CCN(CC)S(=O)(=O)c1ccc2c(c1)CC(C(=O)N1CCCC1)N2C(C)=O (centres undefined)	-1.0	-1.9	0.0%	1.0	.	23.1
CC1(C)Cc2cccc(Oc3cc(NN4CCCCC4)c([N+](=O)[O-])cc3[N+](=O)[O-])c2O1	?	-0.6	0.7%	-0.7	?	-7.4
COc1cccc(C2CC(C(F)(F)F)n3ncc(C(=O)NCc4ccco4)c3N2)c1 (centres undefined)	-6.8	-0.7	-0.3%	1.1	-0.2	3.9
O=C(Nc1ccc(C2=NCCN2)cc1)c1ccc(C(=O)Nc2ccc(C3=NCCN3)cc2)c([N+](=O)[O-])c1	-18.4	-1.1	0.3%	0.5	?	-25.7
C=CCn1cnc2c(nnn2-c2ccc(C)c(C)c2)c1=O	3.5	-0.5	0.3%	0.2	3.7	-24.9
CCOc1ccc(CN2CCN(C3CCSCC3)CC2CCO)cc1 (centres undefined)	-0.1	-6.6	0.3%	0.0	-4.3	9.6
CC(OC(=O)C1CC(=O)N(Cc2ccccc2)C1)C(=O)Nc1cccc(C#N)c1 (centres undefined)	4.2	0.5	2.0%	-0.5	-0.9	11.7
O=C(CSC1=NCCN1)NC12CC3CC(CC(C3)C1)C2	15.1	-3.0	7.7%	-0.3	4.5	-15.9
CCCc1nn(C)c2c1C(c1cccnc1)C(C#N)=C(N)O2 (centres undefined)	1.6	-3.9	4.1%[38.3 µM]	0.3	-6.7	13.0
Cc1coc2c(C)c3oc(=O)c(CCC(=O)NCCc4ccc(Cl)cc4)c(C)c3cc12	.	.	-0.1%	0.0	.	-3.0
COc1ccccc1NS(=O)(=O)c1cccc(C(=O)N(C)Cc2cccs2)c1	-9.2	3.0	4.0%	-0.1	-3.9	-1.3
COC(=O)Cn1cc(C(=O)C2CC2)c2ccccc21	8.2	-2.6	0.1%	-0.5	-1.6	-2.1
NS(=O)(=O)c1ccc2nc(NC(=O)CS(=O)(=O)c3ccccc3)sc2c1	6.0	-2.0	-1.7%	0.7	1.2	5.8
COc1ccccc1N1CCN(C(=O)CN(c2ccc(C)c(C)c2)S(C)(=O)=O)CC1	-0.5	-1.6	-1.3%	-1.3	1.1	8.2
CC(=O)NCCNC(=O)c1ccc2c(c1)S(=O)(=O)c1ccccc1C2=O	3.1	2.5	0.4%	0.0	1.1	-2.0
CC1(c2ccc3noc(-c4cccc(F)c4)c3c2)OCCO1	0.8	?	3.1%	0.6	2.6	0.0
O=C(COc1ccccc1Br)NC1CC1	8.1	-1.5	-0.9%	-0.1	-14.3	-2.4
COc1cccc(NC(=O)CN(C)C(=O)c2ccc(Cl)c(S(=O)(=O)N3CCCCCC3)c2)c1	6.1	-1.2	-2.8%	3.2	-25.6	16.6
O=C(COC(=O)C12CC3CC(CC(O)(C3)C1)C2)Nc1ccc(Br)cc1F	3.5	-0.5	2.3%	2.3	2.3	-13.6
COC(=O)[C@@]1(Cc2ccc(F)cc2)[C@H]2c3cc(C(=O)N(C)C)n(CCc4c[nH]c5ccc(OC)cc45)c3C[C@H]2CN1C(=O)c1ccccc1	0.7	.	2.3%	2.3	-1.0	.
CCCCC(OC(=O)c1ccco1)C(=O)NCc1ccc(C)cc1 (centres undefined)	2.2	1.3	-0.2%	2.1	-5.0	18.2
CCn1c(CC2C(=O)Nc3ccccc32)nc2ccccc2c1=O (centres undefined)	.	.	-0.6%	3.5	.	2.5

Record cards, from the list above.
NS(=O)(=O)c1ccc2nc(NC(=O)CS(=O)(=O)c3ccccc3)sc2c1 is listed with Six1-Eya2 inh: 6.0; D2 ag: -2.0; PINK1 expr mod: -1.7%; TRPML1 agonist: 0.7; CtBP-E1A inh: 1.2; TRPML1 inh: 5.8
CC1(c2ccc3noc(-c4cccc(F)c4)c3c2)OCCO1 is listed with Six1-Eya2 inh: 0.8; D2 ag: ?; PINK1 expr mod: 3.1%; TRPML1 agonist: 0.6; CtBP-E1A inh: 2.6; TRPML1 inh: 0.0
C=CCn1cnc2c(nnn2-c2ccc(C)c(C)c2)c1=O is listed with Six1-Eya2 inh: 3.5; D2 ag: -0.5; PINK1 expr mod: 0.3%; TRPML1 agonist: 0.2; CtBP-E1A inh: 3.7; TRPML1 inh: -24.9

Following part:
SMILES	Six1-Eya2 inh	D2 ag	PINK1 expr mod	TRPML1 agonist	CtBP-E1A inh	TRPML1 inh
CCOCCn1c(=NC(=O)c2cc3ccccc3oc2=O)sc2cc(S(N)(=O)=O)ccc21	4.1	-0.1	17.3%	-0.4	-14.5	-1.7
CCOc1cccc(C2c3[nH]c4ccccc4c3CCN2C(=O)CSCc2ccc(F)cc2)c1 (centres undefined)	.	.	0.9%	0.6	.	48.6
CCOc1ccc(-c2nnc(SCC(=O)NC3CCCC3)nc2-c2ccc(OCC)c(OC)c2)cc1OC	.	.	1.2%	0.8	.	?
C=CCn1c(N)cc(=O)nc1SCC(=O)NC(C)c1ccccc1 (centres undefined)	0.8	-3.1	-3.0%[38.3 µM]	0.5	1.6	-4.0
CCCCOc1ccc(C(=O)NCCc2csc(-c3ccc(OC)cc3)n2)cc1	.	.	1.0%	3.2	.	-8.2
COc1ccc(/C=N\Nc2ncc(F)c(N3CCOCC3)n2)cc1OC	-8.0	-5.2	-0.8%	-0.4	-20.5	-1.7
O=C(CC1CCCCC1)N1CCC(c2nc(-c3ccc(S(=O)(=O)N4CCCC4)cc3)no2)CC1	3.8	-0.5	-1.6%[38.3 µM]	2.4	-4.8	12.6
O=C(CSc1n[nH]c(-c2cccs2)n1)NCCc1ccccc1	0.0	-4.8	-0.4%	-0.5	20.8	-5.4
COc1ccc(C(=O)Nc2cc(=O)[nH]c3ncnn23)cc1	-12.5	3.5	1.8%	1.0	-15.4	-0.7
CCOC(=O)N1CCN(C(=O)c2ccc(OC)c(OC)c2)CC1	4.5	-2.5	-1.2%	-0.9	6.8	33.7
Cn1cccc1CC(=O)N/N=C\c1cccs1	-4.9	-8.1	3.9%	-0.9	-25.3	-14.4
O=C(NC(c1ccc(-c2ccccc2)cc1)c1cnccn1)C1CCN(CCOc2ccc(F)cc2)CC1 (centres undefined)	-0.1	-4.7	3.0%	1.9	9.1	.
COc1cccc(C2CC(c3ccccc3C)n3nc(N)nc3N2)c1 (centres undefined)	-1.9	-0.7	-3.7%	0.8	1.4	5.2
Cc1noc(C)c1S(=O)(=O)Nc1ccc2c(c1)C(=O)N([C@H](C)CO)C[C@H](C)[C@@H](CN(C)S(=O)(=O)c1ccccc1)O2	2.5	-4.6	1.5%	0.1	-0.5	9.9
COc1cc(CCCN2CCNC[C@@H]2C(C)O)cc(OC)c1OC (some centres undefined)	0.8	-3.5	1.3%	-0.2	3.0	22.8
COc1ccccc1COC(=O)Nc1c(C)nn(C)c1Cl	-2.7	-1.9	22.3%[38.3 µM]	-0.8	-1.7	-3.0
CCOC(=O)N1CCN(CC(O)COC2CC(C)CC(C)(C)C2)CC1 (centres undefined)	4.7	12.9	4.6%	0.2	-1.1	4.5
COc1ccccc1CNC(=O)CCCn1c(=O)c2ccccc2n(Cc2ccccc2F)c1=O	.	.	0.0%	1.9	.	-1.9
CCN1C(=O)/C(=C\c2cn(CCC#N)nc2-c2ccc(F)cc2)SC1=S	-11.5	6.0	0.4%	3.4	-1.9	-6.0
O=C(N/N=C/c1ccc(O)c([N+](=O)[O-])c1)C1CC1(c1ccccc1)c1ccccc1 (centres undefined)	-19.4	-6.8	1.8%	2.2	-15.1	2.5
O=S(=O)(c1ccc(Br)s1)N1CCC2(CC1)OCCO2	9.6	-1.3	1.6%	-0.5	4.5	-16.1
CC(C(=O)N/N=C/c1ccc(N(C)C)c(Br)c1)N(c1ccccc1)S(C)(=O)=O (centres undefined)	-12.2	1.3	-0.9%	0.3	-0.9	-2.2
CCOC(=O)c1cn(CC)c2cc(Cl)c([N+](=O)[O-])cc2c1=O	-0.5	-3.0	-2.9%	-0.5	-0.5	0.9

Screening results deposited in PubChem BioAssay by National Center for Advancing Translational Sciences (NCATS).

The order is random. About 1% of those tested had a hit in this group.
